gsp antagonist = antagonizes gsp, the McCune-Albright syndrome mutation | gsp-mutant cells, cAMP HTRF, 30 min; control for the full effect not named in the record | Potency, µM (doses to about 76.9 µM), for inactives: at the top dose activity change, negative = inhibition, actives largely listed as inhibitors | hit rate 0.4% among 340,000 | AID 624288; active = falling curve of any shape with a large fitted effect; inconclusive = falling curve, mostly with a smaller effect; inactive = flat or rising curve; cell line not stated here;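 note: intracellular cAMP measured with PDE inhibitor Ro 20-1724 present during compound exposure; potency is the fitted concentration of half-maximal effect; % is set by controls: 0 for no effect and ±100 for the full control effect; nearly all actives have a fitted effect of over 65% in size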
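HTRF cAMP read-out (cAMP-d2 plus anti-cAMP antibody-K in lysis buffer, 30 min RT). Before lysis, cells are exposed to compounds with […] for 30 min at 37C in DPBS containing Ca/Mg, BSA and Tween 20.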
Sfp PPTase inh = Sfp phosphopantetheinyl transferase inhibition | Q9F4F7 | Biochemical Sfp PPTase activity, qHTS | Potency, µM, without a hit: max response, negative = inhibition, hits mostly inhibitors | hit rate 3.5% among 310,000 | AID 1490; active = well fitted inhibition curve with a large enough effect; inconclusive = small, poorly fitted or top-dose-only effect, or another doubt; inactive = no such curve, though single readings can be large or run the other way;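 note: the enzyme is Sfp with the accession as filed and its product quenches rhodamine fluorescence; potency is the fitted concentration of half-maximal effect; 0% = enzyme reaction without inhibitor and -100% = no enzyme wells; top concentration of the series not given in the record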
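Reaction rates are the 30-min fluorescence difference (ex 525, em 598 nm) in wells containing 15 nM Sfp, 5 uM rhodamine-CoA and 12.5 uM BHQ-2-YbbR at pH 7.6 with 10 mM MgCl2.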
gsp ag = gsp mutant agonism; Potency, µM (series often up to 76.9 µM), for the others: at the top dose activation (cAMP increase), hits mostly activators; gsp mutant cells, cAMP HTRF, 30 min; control for the full effect not named in the record; hit rate 0.13% among 340,000; active = well fitted activation curve with a large enough effect; inconclusive = small, poorly fitted or top-dose-only effect, or another doubt; inactive = no such curve, though single readings can be large or run the other way; cell line not stated here;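 note: phosphodiesterase inhibitor Ro 20-1724 added with compounds to block cAMP breakdown; potency is the fitted concentration of half-maximal effect; nearly all actives have a fitted effect of over 60% in size; about a fifth of the inactives were tested at one dose only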
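Cells in DMEM/10% FBS with G418 were pretreated with compounds in DMSO plus […] (300 uM stock) for 30 min at 37C. cAMP was measured by HTRF (cAMP-d2 plus anti-cAMP antibody-K) after 30 min at room temperature.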
Menin-MLL FL inh = menin-MLL binding inhibition, fluorescein peptide. 290,000 tested, under 10 active. Fluorescence polarization, fluorescein-MLL peptide displacement from menin. FP activity change, % at 61.4 µM; inconclusive = falling polarisation curve, or a change in total fluorescence; inactive = total fluorescence flat and polarisation flat or rising; no compound was filed as active; the % refers to the polarisation; negative = inhibition;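 note: % of control where 0% means no effect; inhibitors lower the polarisation; unlabelled MLL peptide was the positive control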
TRPV1 PAM = potentiators of human vanilloid receptor 1 (TRPV1) | Q8NER1 | TRPV1-expressing cells, Fluo-8 calcium influx, capsaicin EC20 potentiation; host cell line not named in the record; control for the full effect not named in the record | potentiation, % at 8.33 µM | hit rate 0.02% among 320,000 | AID 540277; active means potentiation above 80%; inconclusive means 30% to 80%; inactive means below 30%; note: 0% is about no effect
Target sequence (Q8NER1 whole entry, looked up): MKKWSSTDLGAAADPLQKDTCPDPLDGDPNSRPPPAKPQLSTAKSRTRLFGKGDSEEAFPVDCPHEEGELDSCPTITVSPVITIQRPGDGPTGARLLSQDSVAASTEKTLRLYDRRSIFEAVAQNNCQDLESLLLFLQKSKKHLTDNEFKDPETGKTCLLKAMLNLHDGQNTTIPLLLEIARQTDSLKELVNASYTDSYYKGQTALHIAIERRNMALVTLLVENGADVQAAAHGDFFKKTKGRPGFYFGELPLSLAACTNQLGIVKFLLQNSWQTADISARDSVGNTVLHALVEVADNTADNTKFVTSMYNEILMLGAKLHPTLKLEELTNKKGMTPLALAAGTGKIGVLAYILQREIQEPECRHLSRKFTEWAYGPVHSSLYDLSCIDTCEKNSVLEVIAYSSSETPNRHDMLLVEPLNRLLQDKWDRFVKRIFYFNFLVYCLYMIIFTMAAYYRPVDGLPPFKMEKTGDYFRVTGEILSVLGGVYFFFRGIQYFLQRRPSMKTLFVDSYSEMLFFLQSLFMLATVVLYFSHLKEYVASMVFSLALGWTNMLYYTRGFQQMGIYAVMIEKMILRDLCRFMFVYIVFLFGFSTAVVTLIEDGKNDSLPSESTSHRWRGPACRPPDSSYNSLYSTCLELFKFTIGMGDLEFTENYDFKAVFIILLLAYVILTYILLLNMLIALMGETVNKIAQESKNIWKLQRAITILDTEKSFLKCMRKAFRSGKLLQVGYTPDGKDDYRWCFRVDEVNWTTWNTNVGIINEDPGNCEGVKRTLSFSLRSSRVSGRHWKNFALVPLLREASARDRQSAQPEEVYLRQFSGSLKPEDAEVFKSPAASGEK
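Cells expressing TRPV1 were dye-loaded with Fluo-8 and read kinetically: 10 s baseline, 3 min after compound (agonist portion), then 2 min after EC20 capsaicin (allosteric enhancer portion). Calcium-bound dye fluorescence at 480/520 nm.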
TRPML1 inh = blocks the human TRPML1 channel | activity change, negative = inhibition, % (concentration not given with the values) | hit rate 0.02% among 390,000 | TRPML1-inducible cells, Ca2+ dye fluorescence, FDSS; stronger effect = lower value; inhibition of EC80 agonist-evoked calcium signal | Q9GZU1 | AID 624415; in the data active means activity change below about -50%; inconclusive means about -30% to -50%; inactive means above about -30%;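 note: stimulus is agonist 54-4 at its EC80 concentration; % is set by controls: 0 for no effect and ±100 for the full control effect; compound concentration not given in the record; the text of the record puts the active cut at -80%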
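TRPML1-DL cells, Tet-induced overnight (~16 h, 37 °C) at 1,500 cells/well, were loaded with Ca8 no-wash dye plus quencher for 45-90 min at room temperature. Compounds were pinned during FDSS kinetic reading; agonist 54-4 at EC80 (4 uM final) then added.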
ClpP mod = qHTS Assay for Activators of ClpP. hit rate 1.9% among 340,000. Potency, µM (doses to about 57.5 µM), for inactives: at the highest dose activity change, negative = active. ATP-dependent Clp protease proteolytic subunit (Bacillus subtilis (strain 168)), P80244. purified B. subtilis ClpP, FRET peptide cleavage, 20 min; active = well fitted falling curve with a large enough effect; inconclusive = small, poorly fitted or top-dose-only effect; inactive = no such curve, though single readings can be large or run the other way; note: potency is the fitted concentration of half-maximal effect; the source files actives as falling curves though it sought activators and does not explain the sign; nearly all actives have a fitted effect of over 65% in size; many hits overshoot -100%
Target sequence (P80244 whole entry, looked up): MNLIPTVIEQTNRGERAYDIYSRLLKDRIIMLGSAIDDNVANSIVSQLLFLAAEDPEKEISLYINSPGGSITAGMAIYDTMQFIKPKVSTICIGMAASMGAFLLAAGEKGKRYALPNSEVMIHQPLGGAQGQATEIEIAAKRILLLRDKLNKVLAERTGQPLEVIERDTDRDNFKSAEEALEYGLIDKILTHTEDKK
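Purified B. subtilis ClpP, 10 microg/mL final in Tris/HCl pH8 with KCl, BSA, glycerol and Tween-20, cleaved an Abz/nitrotyrosine-quenched decapeptide. Fluorescence (ex 320, em 430) was read at 0 and 20 min at room temperature. Delta was normalized to 5.8 microM ADEP and DMSO/no-enzyme controls.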
Starred values were filed as active, the others as inactive; ? = inconclusive; · = no result given; & = joins results of further samples; [ ] = remark or other dose. Rows were taken by chance; overall some 4.9% were active at least once.

Every second line gives: gsp antagonist | Sfp PPTase inh | gsp ag | Menin-MLL FL inh | TRPV1 PAM | TRPML1 inh | ClpP mod
COC(=O)c1ccc(-c2nc(-c3ccc(Br)o3)no2)cc1
  6% | -4% | -2% | 1.2 | · | 15 | 2.3%
CC(=O)NC(Cc1cccc(F)c1)C(=O)NC1CCN(C(=O)Nc2ccc(C)cc2)CC1 (stereo not drawn)
  · | 11% | -1%[15.4 µM] | · | -1 | 4 | ·
O=C1CNC(=S)N1C1CCCCCC1
  -7% | 0% | -36%[inhibitor] | 1.0 | 2 | 0 | ·
CCOP(=O)(OCC)c1nc(-c2ccc(Br)cc2)oc1N1CCCCC1
  -13% | -10% | 7% | 3.6 | -17 | -4 | 4.5%
O=S(=O)(NCc1ccccc1)c1ccc(S(=O)(=O)NCC2CCCO2)cc1 (stereo not drawn)
  10% | 14% | -5%[15.4 µM] | 0.7 | -6 | -11 | ·
O=C(O)CC1(CC(=O)Nc2ccc3c(c2)OCCCO3)CCCCC1
  -14% | 12% | 3%[15.4 µM] | 2.0 | 13 | -6 | ·
Cc1ccc2c(C)c(C(=O)N3CCC(N4CCC(C(=O)NC5CC5)CC4)CC3)oc2c1
  9% | 17% | 11%[15.4 µM] | -0.5 | 7 | 15 | ·
CCOc1cc2nc(-c3ccc(OC)c(OC)c3)nc(N3CCOCC3)c2cc1OC
  25% | 14% | 15% | -0.9 | -18 | 7 | ?
N#CC1(NC(=O)CSc2nc3ccccc3o2)CCCCC1
  4% | · | -1%[15.4 µM] | · | · | -1 | -1.2%
CCOC(=O)c1c(C)c(C(=O)N2CCN(c3ccccc3)CC2)c(C)n1C
  4% | 2% | -6% | 0.0 | -8 | -5 | ·
Brc1ccc(-c2nnc(SCCC3OCCCO3)o2)cc1
  -25% | 11% | -21% | 1.9 | -1 | -20 | -4.4%
COc1ccc(/C=N/NC(=O)c2cccc(C(=O)N/N=C/c3ccc(OC)c(OC)c3)n2)cc1OC
  15% | 17% | 17% | 1.3 | 9 | -6 | 34%
c1ccc(-c2csc3nnc(SCc4ccc5c(c4)OCCO5)n23)cc1
  -38% | -5% | 1% | 0.6 | 8 | 63 | 0.4%
COc1ccc(OC)c2sc(N3CCc4ccccc4C3)nc12
  -24% | -25% | 11%[15.4 µM] | -0.1 | ? | 2 | ·
c1ccc(OCc2nn3c(-c4ccccn4)nnc3s2)cc1
  15% | 7% | 24% | -1.8 | -5 | 20 | 0.2%
C=CS(=O)(=O)N(Cc1ccccc1Br)[C@H](CO)Cc1ccccc1
  -6% | · | · | · | · | 14 | 0.3%&-3.6%
COc1ccc(-c2cc(CCCC(=O)NCc3ccccn3)no2)cc1
  -8% | 0% | -108%[inhibitor] | -7.1 | · | 10 | -0.2%
CCc1ccc(CNc2ccc(N3CCN(C(C)=O)CC3)cc2)cc1
  -17% | 35µM* | 23% | 0.4 | 7 | -4 | -2.8%
COc1ccc(-c2sc3ccccc3c2/C=C/c2ccncc2)cc1
  11µM* | · | · | · | · | 45 | ?
CCOc1ccc(CCNC(=O)c2ccc3c(c2)NC(=O)C2CCCN32)cc1OCC (stereo not drawn)
  · | -19% | · | ? | -20 | · | ·

Pulled by compound from the list above (2):
Every second line gives: gsp antagonist | Sfp PPTase inh | gsp ag | Menin-MLL FL inh | TRPV1 PAM | TRPML1 inh | ClpP mod
COc1ccc(-c2sc3ccccc3c2/C=C/c2ccncc2)cc1
  11µM* | · | · | · | · | 45 | ?
C=CS(=O)(=O)N(Cc1ccccc1Br)[C@H](CO)Cc1ccccc1
  -6% | · | · | · | · | 14 | 0.3%&-3.6%

The listing picks up, repeating the 6 entries before the break.
Every second line gives: gsp antagonist | Sfp PPTase inh | gsp ag | Menin-MLL FL inh | TRPV1 PAM | TRPML1 inh | ClpP mod
c1ccc(OCc2nn3c(-c4ccccn4)nnc3s2)cc1
  15% | 7% | 24% | -1.8 | -5 | 20 | 0.2%
C=CS(=O)(=O)N(Cc1ccccc1Br)[C@H](CO)Cc1ccccc1
  -6% | · | · | · | · | 14 | 0.3%&-3.6%
COc1ccc(-c2cc(CCCC(=O)NCc3ccccn3)no2)cc1
  -8% | 0% | -108%[inhibitor] | -7.1 | · | 10 | -0.2%
CCc1ccc(CNc2ccc(N3CCN(C(C)=O)CC3)cc2)cc1
  -17% | 35µM* | 23% | 0.4 | 7 | -4 | -2.8%
COc1ccc(-c2sc3ccccc3c2/C=C/c2ccncc2)cc1
  11µM* | · | · | · | · | 45 | ?
CCOc1ccc(CCNC(=O)c2ccc3c(c2)NC(=O)C2CCCN32)cc1OCC (stereo not drawn)
  · | -19% | · | ? | -20 | · | ·
COc1ccc(S(=O)(=O)N2CCCCC2)cc1NC(=O)CSc1nccn1C
  · | 12% | 17%[15.4 µM] | 0.8 | -8 | -27 | ·
COc1cccc(OCC(O)CNC(=O)c2oc3c(C)c(C)ccc3c2C)c1 (stereo not drawn)
  -6% | -1% | -4%[15.4 µM] | 1.3 | 3 | -4 | -0.8%
COc1cc2c(cc1OC)CN(C(=O)C1CCCN(C(=O)c3ccc(Cl)cc3)C1)CC2 (stereo not drawn)
  -7% | · | 9% | · | -15 | 7 | -7.5%
Cc1ccccc1Nc1ncnc(N)n1
  4% | 18% | -7%[15.4 µM] | -0.8 | 7 | 7 | 0.2%
COc1cc2cc(C(=O)N/N=C/c3cccc(OC)c3OC)[nH]c2cc1OC
  7% | 3% | 10% | -1.5 | -5 | 5 | ·
CC(=O)C1=C(C)OC(N)=C(C#N)C1c1cccc([N+](=O)[O-])c1 (stereo not drawn)
  8% | 7% | -4%[15.4 µM] | 1.3 | -2 | 13 | ·
CCS(=O)(=O)N1CCCC(C(=O)NCc2ccc3c(c2)OCO3)C1 (stereo not drawn)
  17% | 16% | 24% | -0.8 | 12 | 10 | -0.7%
COc1cc(C(=O)O)nc2ccccc12
  ? | 63µM* | 11% | 1.0 | 4 | -7 | 0.3%
Cc1ccc(NC(=O)c2ccc(C#CC3(O)CCCCC3)cc2)cc1C
  9% | 14% | 25% | 0.4 | -23 | -6 | 50%
CCC(=O)NC(c1ccccc1)c1nc2ccccc2[nH]1 (stereo not drawn)
  -7% | 9% | -35%[inhibitor] | -1.3 | -35 | 10 | -2.4%

Carrying on.
| SMILES | gsp antagonist | Sfp PPTase inh | gsp ag | Menin-MLL FL inh | TRPV1 PAM | TRPML1 inh | ClpP mod |
| --- | --- | --- | --- | --- | --- | --- | --- |
| O=C(O)C1Cn2c(nc3c(c2=O)C2(CCCC2)Cc2ccccc2-3)S1 (stereo not drawn) | 0% | 0% | -6% | -2.6 | 13 | ? | 3.8% |
| C[C@H](NS(=O)(=O)c1ccc(Cl)cc1)C(=O)OCC(=O)c1ccc[nH]1 | -17% | 28% | -50% | 0.9 | 8 | -26 | -4.8% |
| COc1ccc([C@H]2CC(=O)C=C(c3cc(F)ccc3F)C2)cc1OC | -1% | · | · | · | -15 | 9 | -3.7% |
| Cc1ccc(NC(=O)CSCC(=O)N(C)CC(=O)Nc2ccccc2C(F)(F)F)cc1 | -5% | · | 10%[15.4 µM] | · | -4 | -6 | 0.2% |
| CN(C(=O)CN1C(=O)/C(=C/c2ccccc2F)SC1=S)C1CCS(=O)(=O)C1 (stereo not drawn) | -12% | 7% | -27% | 1.6 | 4 | -6 | 0.2% |
| COc1cccc(NC(=O)c2ccc3c(c2)CCN3S(C)(=O)=O)c1 | -17% | 14% | -29% | 1.7 | 9 | -4 | -0.5%&0.5% |
| CCCn1c(N)c(N(CCOC)C(=O)c2cccc(C(F)(F)F)c2)c(=O)[nH]c1=O | 5% | 17% | -1% | -1.2 | 4 | 6 | · |
| Cn1c(=O)oc2cc(S(=O)(=O)NCCC(=O)N3CC=C(c4ccccc4)CC3)ccc21 | -14% | ? | 2% | -2.2 | -4 | -13 | 1.6% |
| Cc1oc(-c2ccc(Cl)cc2)nc1CSCC(=O)NCCCN1CCOCC1 | -2% | 8% | 14% | 8.4 | -9 | 9 | ? |
| Cc1ccc(CCc2nnc(SCC(=O)Nc3cc(Cl)ccc3Cl)n2-c2ccccc2)o1 | 1% | -18% | ? | 7.7 | 3 | -5 | -1.4% |
| Cc1ccc(OCC(=O)Nc2ccc(-c3nc4ncccc4o3)cc2)cc1 | 10% | 3% | 13% | 0.7 | 5 | -5 | ? |
| COc1ccccc1CC(=O)N1CCCc2cc(C)ccc21 | 0% | 0% | -14% | 4.6 | 1 | 0 | 0.3% |
| COc1cc(NC(=O)CN(C)S(=O)(=O)c2ccc3nc(C)sc3c2)cc(OC)c1 | -2% | 20% | 8%[15.4 µM] | -4.4 | -3 | -25 | · |
| Cc1ccc2oc(C(=O)NCc3ccc(S(N)(=O)=O)cc3)cc(=O)c2c1 | -3% | 21% | -4% | 6.0 | -9 | 15 | -8.9% |
| CCOC(=O)c1cnc(SCC(C)C)nc1N | 2% | 0% | 8% | 1.5 | 6 | -4 | -2.5% |
| CC(C)=CCN1CCN(Cc2c[nH]c3ccccc23)CC1CCO (stereo not drawn) | -2% | 16% | 15%[15.4 µM] | 3.0 | -5 | 21 | -0.3% |
| COc1ccc(CCN2CC(C(=O)NCc3cc(C)on3)CCC2=O)cc1 (stereo not drawn) | 12% | 5% | ? | 6.1 | 5 | -6 | 1.0% |
| NC(=O)c1ccccc1NC(=O)Nc1ccccc1Cl | 4% | 4% | -2%[15.4 µM] | -2.1 | 13 | 7 | · |
| Cc1[nH]c2c(C)cccc2c1CCNS(=O)(=O)c1cccc([N+](=O)[O-])c1 | 2% | 11% | ? | 3.1 | 7 | 6 | -5.5% |
| COc1cc(NC(=O)n2ncc3cc(Cl)ccc32)cc(OC)c1 | 4% | -3% | -2% | -13 | -7 | · | -3.0% |
| C=CCN=C1N[C@@H](c2ccccc2)C(C(=O)OC)=C(C)N1CCOC | 2% | 11%&-5% | · | -2.9&-6.8 | 10&14 | 11 | -1.0% |
| CNC(=S)N1CCC(NC(=O)C(Cc2ccc(F)cc2)NC(C)=O)CC1 (stereo not drawn) | 7% | 7% | ? | 0.6 | 3 | -8 | -2.1% |
